# ClpP mod = qHTS Assay for Activators of ClpP; 340,000 compounds, 1.9% hits; purified B. subtilis ClpP, FRET peptide cleavage, 20 min; ATP-dependent Clp protease proteolytic subunit (Bacillus subtilis (strain 168)), P80244; AID 651965, 2013; Potency, µM (highest dose often 57.5 µM), without a hit: at the highest dose activity change, negative = active; active = well fitted falling curve with a large enough effect; inconclusive = small, poorly fitted or top-dose-only effect; inactive = no such curve, though single readings can be large or run the other way; further: potency means the concentration at half of the fitted maximal effect; the source files actives as falling curves though it sought activators and does not explain the sign; nearly all actives have a fitted effect of over 65% in size; many hits overshoot -100%
# Target sequence (P80244 whole entry, looked up): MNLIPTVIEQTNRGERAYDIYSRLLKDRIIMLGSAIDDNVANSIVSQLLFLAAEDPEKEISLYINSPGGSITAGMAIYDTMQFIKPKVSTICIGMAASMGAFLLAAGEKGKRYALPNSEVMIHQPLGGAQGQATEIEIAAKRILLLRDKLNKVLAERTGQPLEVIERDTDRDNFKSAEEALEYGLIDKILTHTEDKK
#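 Purified B. subtilis ClpP, 10 microg/mL final in Tris/HCl pH8 with KCl, BSA, glycerol and Tween-20, cleaved an Abz/nitrotyrosine-quenched decapeptide. Fluorescence (ex 320, em 430) was read at 0 and 20 min at room temperature. Delta was normalized to 5.8 microM ADEP and DMSO/no-enzyme controls.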
# Sfp PPTase inh = inhibitors of Bacillus subtilis Sfp phosphopantetheinyl transferase. Q9F4F7. Biochemical Sfp PPTase activity, qHTS. Potency, µM, for inactives: max response, negative = inhibition, hits mostly inhibitors. 310,000 compounds, 3.5% hits; active means well fitted inhibition curve with a large enough effect; inconclusive means small, poorly fitted or top-dose-only effect, or another doubt; inactive means no such curve, though single readings can be large or run the other way;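 further: the enzyme is Sfp with the accession as filed and its product quenches rhodamine fluorescence; potency means the concentration at half of the fitted maximal effect; 0% = enzyme reaction without inhibitor and -100% = no enzyme wells; top concentration of the series not given in the record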
#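 Step 1, compound plus 15 nM Sfp-PPTase, 15 min, room temperature. Step 2, add rhodamine-CoA (5 uM) and BHQ-2-YbbR (12.5 uM). Step 3, read 525/598 nm fluorescence at 0 and 30 min.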
# Menin MLL FP FL = displaces fluorescein MLL peptide from human menin; 290,000 tested, under 10 active; Fluorescence polarization, fluorescein-MLL peptide displacement from menin; FP activity change, % at 61.4 µM; inconclusive = falling polarisation curve, or a change in total fluorescence; inactive = total fluorescence flat and polarisation flat or rising; no compound was filed as active; the % refers to the polarisation; negative = inhibition;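 further: % of control where 0% means no effect; inhibitors lower the polarisation; unlabelled MLL peptide was the positive control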
# TRPML1 inh = blocks the human TRPML1 channel; Q9GZU1; AID 624415; activity change, negative = inhibition, % (no concentration beside the values); TRPML1-inducible cells, Ca2+ dye fluorescence, FDSS; hits give low values; inhibition of EC80 agonist-evoked calcium signal; 390,000 compounds, 0.02% hits; in the data active means activity change below about -50%; inconclusive means about -30% to -50%; inactive means above about -30%;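 further: stimulus is agonist 54-4 at its EC80 concentration; on the % scale 0 is the no-effect control and ±100 the full control effect; compound concentration not given in the record; the text of the record puts the active cut at -80%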
# Target sequence (Q9GZU1 whole entry, looked up): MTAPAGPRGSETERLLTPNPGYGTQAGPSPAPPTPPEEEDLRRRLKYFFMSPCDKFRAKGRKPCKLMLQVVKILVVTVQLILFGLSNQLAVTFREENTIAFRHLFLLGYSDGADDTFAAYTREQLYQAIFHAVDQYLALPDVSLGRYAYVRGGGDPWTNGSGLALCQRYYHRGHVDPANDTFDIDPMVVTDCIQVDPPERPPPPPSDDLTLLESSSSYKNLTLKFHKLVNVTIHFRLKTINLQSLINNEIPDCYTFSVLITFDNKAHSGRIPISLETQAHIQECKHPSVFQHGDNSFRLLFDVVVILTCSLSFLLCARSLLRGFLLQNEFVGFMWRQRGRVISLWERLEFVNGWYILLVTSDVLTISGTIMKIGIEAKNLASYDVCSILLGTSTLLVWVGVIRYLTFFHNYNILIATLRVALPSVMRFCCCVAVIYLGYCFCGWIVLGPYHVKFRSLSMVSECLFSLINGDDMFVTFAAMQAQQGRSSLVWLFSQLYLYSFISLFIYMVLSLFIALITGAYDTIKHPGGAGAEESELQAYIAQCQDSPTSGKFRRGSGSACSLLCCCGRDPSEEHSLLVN
#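 Calcium fluorescence in TRPML1-DL cells induced overnight with Tet: a 110 s read after compound pin addition, then a 110 s antagonist read after challenge with 54-4 at 4 uM final (EC80).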
# TRPML1 ag = agonists of human TRPML1 channel | AID 624414 | activation, % (test concentration not listed) | 410,000 compounds, 0.12% hits | TRPML1-expressing cells, Ca2+ dye fluorescence, FDSS; host cell line not named in the record; reference of the full effect not given here | Q9GZU1; in the data active = activation above about 50%; inconclusive = about 30% to 50%; inactive = below about 30%; further: 0% is about no effect; the text of the record puts the active cut at 80%
#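 Kinetic FDSS Ca2+ read in Tet-induced TRPML1-DL cells (ABD Ca8 dye plus quencher, 45-90 min RT loading): baseline, then compound, then 110 s agonist window; EC80 agonist 54-4 at 4uM final added afterwards for a 110 s antagonist window.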
# PINK1 modulator = PINK1 expression modulation; PINK1 immunofluorescence, high-content cytometry, 24 h; Potency, µM (series often up to 76.6 µM), for the others: at the highest dose activation (PINK1 increase), most hits filed as activators; 410,000 compounds, 0.2% hits; AID 624263; active = well fitted activation curve with a large enough effect; inconclusive = small, poorly fitted or top-dose-only effect; inactive = flat fitted curve, though single readings scatter; cell line not stated here;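 further: potency means the concentration at half of the fitted maximal effect; % of control where 0% means no effect; nearly all actives have a fitted effect of over 65% in size; a mitochondrial uncoupler was the plate control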
#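 Stable cell line treated 24 h with compounds at 5 concentrations (CCCP controls), then fixed and immunostained for PINK1 plus nuclear and cell stains; PINK1 immunofluorescence quantified by laser-scanning microplate cytometry.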
# TRPV1 PAM = enhances activation of the human vanilloid receptor TRPV1. TRPV1-expressing cells, Fluo-8 calcium influx, capsaicin EC20 potentiation; host cell line not named in the record; control for the full effect not named in the record. potentiation, % at 8.33 µM. 320,000 compounds, 0.02% hits. AID 540277; active means potentiation above 80%; inconclusive means 30% to 80%; inactive means below 30%; further: 0% is about no effect
#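 Fluo-8 calcium influx in TRPV1-expressing cells, kinetic read (ex 480/em 520 nm). Compound added and read 3 min for agonist activity, followed by capsaicin at EC20 final and 2 min further read for enhancement.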
# * hit, by the source's call; ? = inconclusive; / = not tested or not shown; & = joins results of further samples; [ ] = dose if it differs, or a comment.
SMILES,ClpP mod,Sfp PPTase inh,Menin MLL FP FL,TRPML1 inh,TRPML1 ag,PINK1 modulator,TRPV1 PAM
COC(=O)C1(C)NCCc2c1[nH]c1ccccc21 (configuration not stated),-4.9%,/,/,5,0.9,-0.4%,-1
COC(=O)C1=C(C)N(Cc2ccccc2)C(=NCCc2cccnc2)N[C@H]1c1ccccc1,-2.3%,2%&-1%,-1.8&-8.3,22,0.2,-0.1%,6&-9
CCN(CC)c1c2c(c(C#N)c3nc4ccccc4n13)CCC2,-2.9%,2%,0.4,16,1.2,?,-6
CC[C@@]12C(=O)N(c3ccc(C)cc3)C(=O)N1[C@H](c1cccc(C)c1)[C@@H]1C(=O)N(Cc3ccccc3)C(=O)[C@@H]12,0.2%,/,/,-7,-0.1,1.1%,12
CCCCSc1nnc2c(n1)OC(c1ccc(Br)s1)Nc1ccccc1-2 (configuration not stated),-0.1%,/,/,-13,1.4,1.4%,/
Cc1cc(C)cc(NC(=O)c2ccc3c(c2)CCN3S(C)(=O)=O)c1,-1.4%,9%,4.3,/,/,-0.4%,-7
COc1cc(NC(=S)Nc2ccccn2)c(OC)cc1Cl,0.2%,1%,-1.2,4,0.5,6.9%,1
COc1cc(/C=N/NC(=O)c2cccnc2)cc(Br)c1O,0.2%,-6%,-3.2,1,-0.9,-0.1%,4
COc1ccc2nc(C)cc(Nc3ccccc3OC)c2c1,-1.3%,/,/,-1,-0.6,5.3%,/
O=C(CCc1ccccc1)NNC(=O)Nc1ccc(Cl)cc1,0.3%,24%,0.4,-8,0.0,1.6%,-21
Cn1c(CNC(=O)CNC(=O)Cc2ccc(F)cc2)cc(=O)n(C)c1=O,-3.3%,12%,1.2,-12,-0.4,-0.4%,-17
CCOC(=O)Cc1csc(NC(=O)c2ccc(C)cc2)n1,/,10%,-3.6,4,0.1,2.9%,-10
COc1ccc(C(=O)NC(C(=O)NCc2ccccc2OC)C(C)C)cc1 (configuration not stated),-0.4%,12%,-3.8,-9,-0.4,0.5%,2
CCC(=O)NC(=S)Nc1ccc(NC(=O)c2ccco2)cc1,/,-3%,-3.2,19,-0.6,1.1%,0
CC(C)(C)OC(=O)N1CCC(c2c(C(=O)N3CCOCC3)cnn2-c2cccc(F)c2)CC1,-0.1%,/,/,0,-0.2,0.8%,/
CC(OC(=O)C1CC2CCCC(C1)C2=O)C(=O)Nc1cccc([N+](=O)[O-])c1 (configuration not stated),-1.0%,/,/,-13,-1.3,1.3%,/
COc1cccc(CN2CC(C(=O)N3CCCO3)CCC2=O)c1 (configuration not stated),-0.3%,19%,4.0,-5,-0.6,-1.5%,3
CCOC(=O)CC(=O)Nc1ccc(C(=O)OCC)cc1,-0.2%,12%,4.5,25,-0.3,6.7%,-7
CCN1C(=O)C(O)(CC(=O)c2c(C)coc2C)c2ccccc21 (configuration not stated),/,1%,-2.1,-9,-0.2,3.0%,-5
O=C(NCCN1CCCCC1)Nc1cccc(Cl)c1Cl,/,9%,-1.0,-5,0.7,0.6%,3

# Arranged by value in PINK1 modulator (high to low): 3 of the compounds above
canonical_smiles	PINK1 modulator
CC(C)(C)OC(=O)N1CCC(c2c(C(=O)N3CCOCC3)cnn2-c2cccc(F)c2)CC1	0.8%
COc1ccc(C(=O)NC(C(=O)NCc2ccccc2OC)C(C)C)cc1 (configuration not stated)	0.5%
COc1cc(/C=N/NC(=O)c2cccnc2)cc(Br)c1O	-0.1%

# Further records.
SMILES,ClpP mod,Sfp PPTase inh,Menin MLL FP FL,TRPML1 inh,TRPML1 ag,PINK1 modulator,TRPV1 PAM
Clc1ccccc1C1=Nn2c(nnc2-c2ccco2)SC1,/,-2%,4.0,0,0.3,-1.4%,-19
CC1CCN(C(=O)c2ccc(NC(=O)C3CCCO3)cc2)CC1 (configuration not stated),2.1%,25%,1.3,-2,-0.5,0.5%,-5
O=C(NCc1ccccc1)c1nc(-c2ccc(Cl)cc2)n2c1CCCCC2,-3.6%,/,/,33,0.3,5.8%,/
CC1=C(C(=O)OC2CCCCCC2)C(c2c(F)cccc2Cl)CC(=O)N1 (configuration not stated),0.4%,/,/,-1,-0.1,3.1%,/
Cc1ccc(O)c(NC(=O)c2noc3c2CCCC3)c1,0.2%,/,/,38,0.2,2.1%,/
N#Cc1ccc(C(=O)NNC(=O)c2ccncc2)cc1,1.8%,5%,3.4,1,0.1,3.7%,7
Cc1ccccc1NC(=O)c1nc(S(C)(=O)=O)ncc1N(Cc1ccco1)Cc1sccc1C,-3.9%,/,/,21,0.8,-0.4%,/
Cc1nc2ccc(NC(=O)N3CCSCC3)cc2s1,1.5%,10%,3.4,-2,-0.1,2.1%,-11
CC(=NCc1cccc(Cl)c1)c1nc(-c2ccco2)oc1O,-1.4%,-24%,1.7,-6,-0.5,2.3%,2
CS(=O)(=O)N(CC(=O)N1CCc2ccccc2C1)Cc1ccc(Cl)cc1,1.2%,6%,3.8,-5,-0.6,-2.3%[38.3 µM],-10
CCN1CCN(/C=N/c2nc3c(s2)CCCC3)CC1,-1.4%,-4%,-0.1,-7,0.0,-5.0%[38.3 µM],19
COc1cc(-c2n[nH]c(=S)n2-c2cccc(C(F)(F)F)c2)cc(OC)c1OC,-4.1%,-20%,1.3,-19,0.6,3.3%,7
CCCCc1nc(NCCN2CCOCC2)c(C#N)c2c1COC(C)(C)C2,-12%,-8%,-2.4,-1,-0.4,0.3%,-14
CC(C)c1nnc(NC(=O)C2CCCN(C(=O)Nc3ccc(F)cc3)C2)s1 (configuration not stated),/,12%,/,-4,-0.6,1.2%,6
CCN(CC(=O)Nc1ccc(OC)cc1)C(=O)c1ccc2c(c1)NC(=O)CS2,/,/,/,-20,0.3,-2.1%,-3
CCN1C(=O)CSc2ccc(C(=O)NCc3ccccc3OC)cc21,-0.9%,7%,-0.1,-8,3.4,4.2%[38.3 µM],12
O=C(NCC1CCCO1)c1cn(Cc2ccccc2)nc1-c1ccc(Cl)cc1 (configuration not stated),1.3%,/,/,-3,-1.6,1.3%,-14
O=C(CCCOc1cccc(Br)c1)NCCOc1ccccc1,/,7%,-6.0,1,-0.6,0.1%,-8
CSc1cccc(NC(=O)c2c(Cl)cnn2C)c1,-0.7%,-13%,-1.3,-4,1.5,0.3%[38.3 µM],?
CN1CCN(c2ccc(S(=O)(=O)N3CCOCC3)cc2)CC1,-3.7%,9%,/,0,0.7,0.2%,4
COc1ccc(Cl)cc1NC(=O)NCCn1c(=O)oc2ccc(C)cc21,-3.2%,/,/,4,-0.8,-0.7%,/
Cc1nc2ccccc2c(=O)n1/N=C/c1ccc(N(C)C)cc1,-2.7%,12%,-0.5,9,-0.4,-2.5%[38.3 µM],-3
Cc1cccc(NS(=O)(=O)c2cccc3nsnc23)c1,15%,5%,-0.5,-12,-0.7,4.6%,1
CCNc1c([N+](=O)[O-])c(=O)oc2ccccc12,/,14%,2.9,1,-0.6,6.0%,2
Cc1ccc(S(=O)(=O)NCc2cccnc2)cc1C,/,22%,2.2,-7,-0.4,1.9%,-9
c1ccc2nc3c(nc2c1)[nH]c1ccccc13,-10%,-3%,-0.3,0,1.5,-1.3%,11
Cn1c(=O)c2c(nc(CN3CCN(CCO)CC3)n2Cc2ccccc2Cl)n(C)c1=O,-1.4%,15%,-1.1,24,0.3,0.0%,-5
C=CCC[C@H](Cc1ccc(F)cc1)C(=O)OC[C@@H](Cc1c[nH]c2ccccc12)NC(=O)[C@@H](CC=C)CC(=O)N[C@H](CO)Cc1ccccc1,0.2%,/,/,-3,-0.4,1.0%,/
CCOC(=O)/C(C#N)=C/N1CCOCC1,/,12%,2.5,4,1.3,0.0%,-1
Cc1ccc(CNC(=O)CCS(=O)(=O)c2cccc3nonc23)cc1,-2.1%,6%,3.6,-2,-0.8,2.3%,-4
O=C(O)c1ccc(-c2ccc(O)c(F)c2)cc1,4.1%,10%,-6.2,-5,-0.6,-0.5%,-26
Cc1c(C(=O)O)cccc1-n1c(C)cc(/C=C(/C#N)C(=O)NCc2ccccc2)c1C,/,8%,-5.8,-9,0.2,-0.1%,7
COc1cc(NC(=S)N2CCN(c3ccccn3)CC2)cc(OC)c1,-15%,7%,0.4,2,0.8,-0.5%,-3
CN1CCN(/C=N/c2c(C#N)cnn2-c2ccccc2)CC1,1.2%,7%,4.5,-8,-1.1,1.4%,-23
CN(C)S(=O)(=O)c1cccc(COc2ncnc3c(Cl)cc(Cl)cc23)c1,/,-7%,0.0,28,1.9,4.1%,9
COCc1ccc([C@@H]2C[C@H]3CN(Cc4cccc(Cl)c4)C(=O)[C@]34CCCN24)o1,-0.2%,0%,-0.2,35,3.3,0.5%,2
Cn1c(=O)n(CCc2ccccc2)c2ccccc21,-2.8%,?,-2.6,23,1.0,3.2%,-2
COC(=O)C1CC(Cl)CN1c1ncc(C(F)(F)F)cc1Cl (configuration not stated),/,11%,-1.0,46,3.2,1.8%,12
O=C1CSC(=S)N1N=C1CCCCCC1,-1.9%,18µM*,13,-15,0.2,11%,-7
CCC/C(O)=C1\C(=O)CC(C)(C)CC1=NCc1ccccc1,/,20%,-2.6,2,0.2,0.5%,-4
CC12CCC(=O)N1C(C(=O)OCC(=O)Nc1sccc1C#N)CS2 (configuration not stated),-2.9%,-9%,?,23,-0.1,4.8%,0
CCOC(=O)CSc1nc(N)c(C#N)c(-c2ccc(OCC)cc2)c1C#N,30%,-17%,8.1,21,1.3,6.0%[38.3 µM],20
CCn1c(SCC(=O)Nc2ccc(C(C)=O)cc2)nnc1C1CC1,/,18%,-1.5,6,-0.1,2.0%,7
Cc1nn(Cc2ccccc2)c(C)c1NC(=O)CSc1nnc(-c2cc(Cl)ccc2O)n1C,-3.5%,-3%,2.7,-9,-0.2,-0.3%[38.3 µM],-29
COC(=O)c1cc(C)sc1NC(=O)C1CC(=O)NN1Cc1ccccc1 (configuration not stated),-6.4%,-2%,3.0,15,-0.6,2.2%,-3
COc1ccc(Br)c(C(=O)N2CCCC2(C)C(=O)NCC(C)C)c1 (configuration not stated),-2.6%,/,/,/,-0.6,0.2%,/
COC(=O)CSc1snnc1-c1ccc(Cl)c(Cl)c1,-0.1%,-18%,5.3,59,1.9,-0.8%,-8
CCN(Cc1ccccc1)C(=O)c1c(C)oc2ncn(C)c(=O)c12,0.0%,/,/,15,-0.1,-0.3%,/

# Assay outcomes: PubChem BioAssay, National Center for Advancing Translational Sciences (NCATS)
